Screens from PubChem.
Tgondii IFNg: T. gondii growth inhibition with IFN-gamma, primary screen, cell-based; activity change, negative = inhibition, %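 (about 20 µM by stock and volumes)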; Toxoplasma gondii growth in IFN-gamma-treated host cells; active compounds read low; reference of the scale not given here; 3.8% of 69,000 active;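 active = below -70%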;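 also: host cells are HeLa cells infected with Toxoplasma gondii; parasite growth read as luciferase light; one replicate is shown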
* = called active by the depositor; & = joins results of further samples. An excerpt, so the mix of outcomes need not match the whole.

Structure,Tgondii IFNg
Cc1cc(-c2csc(NC(=O)CCN3C(=O)NC4(CCCC4)C3=O)n2)ccc1F,131
CCN(CC)Cc1cc(=O)n2c(n1)CN(Cc1nccs1)CCC2,-21
Cc1cc(=O)n(C2CCNCC2)nc1-c1ccccc1,20
COc1ccccc1C1C(C#N)=C(N)Oc2c1oc(CO)cc2=O (stereo not drawn),22
Cc1cc2nc3c(=O)[nH]c(=O)nc-3n(C)c2cc1C=O,11&20
CCS(=O)(=O)Nc1ccc2c(c1)C(=O)N(C)C[C@@H](OC)[C@@H](C)CN(C(=O)c1ccc3c(c1)OCO3)[C@H](C)CO2,6
COc1ccc2c3c(n(C)c2c1)[C@@H](CO)N(Cc1ccncc1)CC31CN(C(=O)Nc2cccc(F)c2)C1,1
Cc1nc(N2CCCC(NC(=O)c3cnccn3)C2)[nH]c(=O)c1C (stereo not drawn),0
CC(C)c1cn(CC[C@H]2CC[C@H](NS(=O)(=O)c3ccc(F)cc3)[C@H](CO)O2)nn1,-33
Cc1ccc2cccc(SCC(=O)Nc3ccc4c(c3)oc3ccccc34)c2n1,-9
Cn1c(Cc2csc(Nc3ccc(F)cc3)n2)nnc1SCC(N)=O,34
CN1CCS(=O)(=O)[C@H]2CCN(S(=O)(=O)Cc3ccccc3)CC[C@@H]21,6

The closing three records of the part above lead into the next:
Structure,Tgondii IFNg
Cc1ccc2cccc(SCC(=O)Nc3ccc4c(c3)oc3ccccc34)c2n1,-9
Cn1c(Cc2csc(Nc3ccc(F)cc3)n2)nnc1SCC(N)=O,34
CN1CCS(=O)(=O)[C@H]2CCN(S(=O)(=O)Cc3ccccc3)CC[C@@H]21,6
CN(C)CCCNC(=O)[C@H]1[C@H](CO)[C@H]2Cn3c(ccc(-c4cccnc4)c3=O)[C@@H]1N2C(=O)CC1CC1,1
Cn1cc(Cc2cc(=O)[nH]n2C)c(-c2ccc(F)cc2)n1,15
Cn1c(CNC(=O)C2CCC2)nc2c1CN(C(=O)NCc1ccccc1)CC2,-36
CC(C)CCN1C2(CCN(C(=O)C3(C)CC3)C2)c2ccccc2S1(=O)=O (stereo not drawn),69
CC(C)c1nccc(CN(C)Cc2cnn(-c3ccccc3)c2)n1,-1
Cc1c(S(=O)(=O)O)oc2c1C(=O)C(=O)c1c-2ccc2c1CCCC2(C)C,10&16
CC(=O)N1c2ccc(NC(=O)Cn3cnc4sc(C)cc4c3=O)cc2CC1C (stereo not drawn),-51
CCOc1ncnc2c1CCN(C(=O)[C@H]1CCCO1)CC2,-52
CCn1nc(C)c(Br)c1-c1nc(CS(=O)(=O)c2ccsc2)no1,17
CCC(C)NC(=O)Cn1c(=O)cc(-c2nc(C(C)C)no2)c2ccccc21 (stereo not drawn),85
O=S(=O)(CCNc1nccc(CCC(F)(F)F)n1)N1CCCC1,-3
CO[C@H]1CC[C@H]2CCN(C)C(=O)[C@@H](C)N(C)C(=O)c3cccc(C#N)c3OC[C@H]1O2,30
CCN(Cc1ccncc1)C(=O)c1cc(C)sc1NC(=O)C(C)(C)C,103
Cc1ccc2[nH]c(=O)c(-c3nc(-c4ccc(C)c(C)c4)no3)c(O)c2c1,-29
CCC(CC)n1nc(C)cc1NC(=O)Cc1nc(C)sc1C,10
CCC(=O)N[C@H]1CC[C@H](CC(=O)NCc2ccccc2F)O[C@H]1CO,44
CC1(C)Cc2ccccc2-c2nc(-c3ccccc3)oc(=O)c21,6
Cn1cc(C(=O)N2CCCCC2c2ccn[nH]2)ccc1=O (stereo not drawn),15
Fc1ccc(Nc2nc(SCc3cccc(Cl)c3)nc3ccccc23)cc1,-11
C[C@H](NC(=O)C[C@@H]1CC[C@@H]2[C@H](COC[C@H](O)CN2Cc2ccc(C(F)(F)F)cc2)O1)c1ccccc1,17
Cc1cc(C)n(C)c(=O)c1C(=O)N1CCOc2ccccc2C1,49
O=c1oc2cc(O)ccc2cc1-c1csc(-c2ccc(Cl)cc2)n1,-1
CC(C)n1c2ccccc2c2c1cc(C(=O)NC1CC1)n2C(=O)N(C)C,20
COc1ccc(S(=O)(=O)Nc2ccc3c(c2)C(=O)N([C@@H](C)CO)C[C@H](C)[C@@H](CN(C)C(=O)Nc2c(C)noc2C)OCCCC[C@H](C)O3)cc1,-33

Ordered by SMILES length (ascending): some entries from above
Structure,Tgondii IFNg
CC1(C)Cc2ccccc2-c2nc(-c3ccccc3)oc(=O)c21,6
Cc1ccc2[nH]c(=O)c(-c3nc(-c4ccc(C)c(C)c4)no3)c(O)c2c1,-29
COc1ccc(S(=O)(=O)Nc2ccc3c(c2)C(=O)N([C@@H](C)CO)C[C@H](C)[C@@H](CN(C)C(=O)Nc2c(C)noc2C)OCCCC[C@H](C)O3)cc1,-33

Next part.
Structure,Tgondii IFNg
FC(F)(F)C(F)(F)C(F)(F)C(F)(F)C(F)(F)C(F)(F)C(F)(F)C(F)(F)Br,16
CCCNC(C)(C)COC(=O)c1ccccc1,3
C[C@H](CO)N1C[C@H](C)[C@H](CN(C)C(=O)Nc2ccccc2)Oc2ccc(NS(=O)(=O)c3ccc(F)cc3)cc2C1=O,15
CN(C)CC(=O)N1Cc2cc(N(C)C)ccc2C1c1cnco1 (stereo not drawn),-3
Cc1ccc(N2CCC(Cc3nn(C)c(=O)n3-c3ccccc3)CC2)nn1,-4
Fc1cccc(CN2CCOCC2c2nccc(N3CCCC3)n2)c1 (stereo not drawn),-3
CCOC(=O)N1CCC(NC(CC(C)C)c2cccnc2)CC1 (stereo not drawn),3
Cn1nc(-c2nccn2CCN2CCOCC2)c2c(Cl)cccc21,4
Cc1cc(OCC(=O)Nc2ccc(C(=O)OCC(C)C)cc2)cc(C)c1Cl,-55
CC(C)N(C)Cc1cc(=O)n2c(n1)CN(S(=O)(=O)C1CC1)CCC2,-9
Cc1noc(C2CCCCN2C(=O)c2cnn(Cc3ccccc3)c2)n1 (stereo not drawn),-4
CC(C)CC(c1nnnn1C1CCCC1)N1CCN(Cc2ccc3c(c2)OCO3)CC1 (stereo not drawn),-1
C[C@H](CO)N1C[C@H](C)[C@H](CN(C)C(=O)Nc2ccc(C(F)(F)F)cc2)Oc2ccc(NS(=O)(=O)c3ccc(Cl)cc3)cc2CC1=O,5
CC1(C)CC(=O)c2cn3c(nc2C1)nc1ccccc13,9
CCn1c(C(=O)N2CCN(c3ncccn3)CC2)cc2cc(S(=O)(=O)N(C)C)ccc21,11
COc1ccc2c3c([nH]c2c1)[C@@H](CO)N(C(=O)CN1CCOCC1)CC31CN(Cc2ccccc2)C1,206
CCOC(=O)C1CCC(CNC(=O)Nc2ccc(-c3nc(-c4ccc(C)cc4C)co3)cc2)CC1 (stereo not drawn),45
O=C(C[C@@H]1CC[C@H](NC(=O)c2cccnc2)[C@H](CO)O1)NCc1ccc(Cl)c(Cl)c1,20
NC(=O)Cc1csc(NC(=O)Cn2nc(C(F)(F)F)c3c2CCCCC3)n1,-2
CN1CCCC(CCNC(=O)CCN2CCCCO2)C1 (stereo not drawn),-26
CS(=O)(=O)c1ccc(CC(=O)N2CCC3(CCCO3)CC2)cc1,40
CC(C)c1nccn1CCCNC(=O)c1ccc(N2CCSCC2)nc1,-7
CO[C@H]1CN(C)C(=O)c2cc(NC(=O)Nc3cc(F)ccc3F)ccc2OC[C@@H](C)NC[C@H]1C,-18
O=C(C[C@H]1C=C[C@H](NC(=O)c2ccc3c(c2)OCO3)[C@H](CO)O1)NC1Cc2ccccc2C1,42
CCCC(Nc1ncc(C)c(N(C)C)n1)c1nccn1C (stereo not drawn),-2
O=C(NCC(c1ccccc1)c1c[nH]c2ccccc12)c1ccc(C(F)(F)F)cc1 (stereo not drawn),-88*
C[C@H](CO)N1C[C@H](C)[C@H](CN(C)C(=O)Nc2cccc(Cl)c2Cl)OCc2ccccc2-c2ccccc2C1=O,-29
Cc1nnsc1C(=O)N1CC[C@@H]2OCCN(C)[C@@H]2C1,-53
CCCCC(=O)Nc1ccc(NC(=O)c2ccnc(C(C)C)n2)cc1C,-9
COc1ccc2c3c([nH]c2c1)[C@H](CO)N(Cc1ccccc1)CC31CN(C(=O)Nc2cccc(F)c2)C1,190
CCn1cncc1CNC(=O)CCc1nc(-c2ccccc2C)no1,0
CN(CCc1noc(-c2cc3cc(Cl)ccc3[nH]2)n1)C(=O)c1cccn1C,-41
Cc1occc1C(=O)N1CCC2(CC1)CN(c1cccnc1)C(=O)CO2,1
COCC12CCCOC1CCN(S(=O)(=O)c1cccnc1)C2 (stereo not drawn),-4
CC(C)c1ccc2c(c1)CCC1C(C)(CNC(=O)NC(C)(C)C)CCCC21C (stereo not drawn),-104*
Cc1ccc(C(=O)N2[C@H]3CCNC[C@@H]2CC3)cc1N1CCNC1=O,-19
CC(C)C(=O)N1CCOCC2(CN(Cc3ccc(N(C)C)nc3)CCO2)C1 (stereo not drawn),-1
COc1ccc(C#Cc2ccc([C@@H]3[C@@H](CO)N4CCCCN(C)C[C@H]34)cc2)cc1,25
O=C(N1CCOC(CCCc2ccccc2)C1)C1(Cn2cccn2)CC1 (stereo not drawn),-3
CC(=O)NCc1nnc2n1CCNCC2,7
O=C(c1ccccc1-c1ncc[nH]1)N1CC(=O)N(C2CCCCC2)CC(OCc2ccccn2)C1 (stereo not drawn),-33
COC1COC2(CCN(Cc3ccc4c(c3)OCO4)CC2)C1 (stereo not drawn),25
Cc1ccc(C2(O)CCN(C(=O)c3cc(C)nc(N4CCCCC4)n3)C2)cc1 (stereo not drawn),11
CCC(=O)N1CC(=O)N2[C@H](C1)[C@@H](c1ccc(C#CCC(C)C)cc1)[C@@H]2CO,0
C/C=C/c1ccc([C@H]2[C@@H](C#N)N(c3nc(CC)cs3)[C@H]2CO)cc1,8
OC1CCN(c2ccnc(N3C[C@@H]4[C@@H]5CC[C@@H](C5)[C@@H]4C3)n2)C1 (stereo partly drawn),-8
CC(C)n1c2ccccc2c2c1cc(C(=O)NCc1cccs1)n2C(=O)N(C)C,-23
O=C(Cc1ccncc1)NCC[C@H]1CC[C@@H](NS(=O)(=O)c2ccccc2Cl)[C@@H](CO)O1,-47

Compounds above with two or more sulfur atoms, in the order listed:
Structure,Tgondii IFNg
Cn1c(Cc2csc(Nc3ccc(F)cc3)n2)nnc1SCC(N)=O,34
CN1CCS(=O)(=O)[C@H]2CCN(S(=O)(=O)Cc3ccccc3)CC[C@@H]21,6
CCn1nc(C)c(Br)c1-c1nc(CS(=O)(=O)c2ccsc2)no1,17

The list goes on:
Structure,Tgondii IFNg
COc1ccc(-c2nc(Cn3nnc(-c4nc(-c5ccc6c(c5)OCO6)no4)c3C)c(C)o2)cc1,6
COc1ccc(CNC(=O)C[C@H]2C=C[C@H](NC(=O)c3cccc(F)c3)[C@@H](CO)O2)cc1,-6
Cc1ccc2c(c1)C1(CCN(CC(=O)O)CC1)CC2OCC1CC1 (stereo not drawn),-7
Cc1cc(=O)[nH]c(SC(C)C(=O)N(C)Cc2ccc(C)o2)n1 (stereo not drawn),4
COc1cccc(Cl)c1-c1ccc2nc(C(C)O)[nH]c2c1 (stereo not drawn),-12
Cc1oc(C2CCN(C(=O)Cc3ccsc3)CC2)nc1C(=O)N1CCSCC1,-26
CS(=O)(=O)N1CCC(CC(=O)NCc2ccc3[nH]c(=O)[nH]c3c2)CC1,41
CCn1ncnc1C(C)NC1CC(C)(C)NC(C)(C)C1 (stereo not drawn),-10
O=C(C[C@@H]1CC[C@@H](NS(=O)(=O)c2ccccc2F)[C@H](CO)O1)NCCCN1CCOCC1,54
COC(=O)c1ccc(CN2CCCCC2c2ccc(F)cc2)o1 (stereo not drawn),11
O=C(c1cn2c(n1)COCC2)N1CCN(c2ccc(Cl)cc2)CC1,-35
O=C1N(Cc2ccc(F)cc2)CCCC1(O)CN1CCN(c2cnccn2)CC1 (stereo not drawn),-1
CNC(=O)c1c(NC(=O)C2CC(C(C)C)=NO2)sc2c1CCCC2 (stereo not drawn),-18
COc1ccccc1-c1nc(CSc2nc3c(=O)[nH]cnc3n2C)c(C)o1,12
CCOc1ccccc1NC(=O)C(=O)NCCc1sc(-c2ccc(C)cc2)nc1C,387
O=C1CSC(=O)N1CCOc1ccc(F)cc1,18
COCc1nnc(NC(=O)c2cc(-c3ccccc3F)no2)s1,107
CC(C)CCCC1CN(C(=O)c2cnc3c(c2)nnn3C)CCO1 (stereo not drawn),4
CN(Cc1cc(-c2ccccc2)on1)Cc1cc2n(n1)CCNC2,-2
O=C(NC1CCCCC1)[C@H]1[C@H](CO)[C@H]2Cn3c(cccc3=O)[C@@H]1N2Cc1cccnc1,-2
O=C1NCC(c2ccccc2)Oc2ccccc21 (stereo not drawn),-27
Cc1ccc(-c2noc(-c3c(O)c4ccc(F)cc4[nH]c3=O)n2)c(C)c1,-37
CCS(=O)(=O)N1CC2(C1)CN(S(=O)(=O)c1ccccc1)[C@H](CO)c1c2c2ccc(OC)cc2n1C,-2
Cc1ccc(-c2nnc(-c3nc(NCc4cccnc4)c4ccccc4n3)o2)cc1,-46
CN(Cc1cc(C#CCO)cs1)C1CC(C)(C)NC(C)(C)C1,0
COc1ccc(NC(=O)N2CCCC3(C2)Nc2cccnc2NC3=NC2CCCC2)c(C)c1 (stereo not drawn),36
CO[C@@H]1CN(C)C(=O)c2cc(NS(=O)(=O)Cc3ccccc3)ccc2OC[C@@H](C)N(Cc2nccs2)C[C@H]1C,123
COc1ccc(NC2CCCN(C(=O)COc3ccc4c(c3)OCO4)C2)cc1 (stereo not drawn),-8
COc1cc(N2CCC3O[C@H](C(=O)NC(C)C)CC32)ncn1 (stereo partly drawn),-40
